Screening results deposited in PubChem BioAssay by several laboratories.
PrP 5UTR inh = inhibition of PrP 5' UTR reporter expression; cell-based PrP 5' UTR mRNA reporter, plate reader; inhibition, % (test concentration not listed); 340,000 compounds, 0.35% hits;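 active = every replicate at 50% or more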;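 note: 0 = median of the neutral control wells; tested in H4 reporter cells; numbers are from one replicate; inactives centre near -14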
Mtb hypoxia rep = reduces hypoxia-regulated biosensor signal in M. tuberculosis; fluorescence inhibition, % (no concentration beside the values); M. tuberculosis hypoxia-regulated fluorescent reporter, fluorescence; 300,000 compounds, 0.1% hits;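 active = 35 to 45% if threefold the growth effect, above 45% if 1.5-fold the growth effect; inactive = the rest, general growth blockers included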;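 note: wells of about 50 µL received 100 nL stock; 0% = vehicle wells and 100% = reference inhibitor wells; whole bacteria with a GFP reporter of the hypoxia response; strong numbers were not always called active; many hits fall short of the cut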
RN4220 kill = kills Staphylococcus aureus RN4220; S. aureus RN4220 growth, OD600, 16 h; inhibition, % (concentration not given with the values); 330,000 compounds, 0.33% hits; AID 1259311;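 active = z-score of -3 or lower and OD600 up to 0.18 on both plates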;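 note: plate controls were untreated cells for no effect and reference antibiotic for full effect; stock transfer was 100 nL into about 80 µL; one replicate is shown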
Autofluor counter = counter-screen for toxin protease inhibitors: compound fluorescence. compound autofluorescence counterscreen, microsphere flow cytometry; active compounds read high. 360,000 compounds, 3.1% hits. fluorescence intensity (no concentration beside the values);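 active = at least 3 SD above the mean of all compounds, about 16000 in these data; inconclusive = too few beads counted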;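 note: 100 nL of 1 mM stock went into each well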
BJeLR lethal = kills HRASV12-expressing BJeLR cells; BJeLR (HRASV12) viability, CellTiter-Glo ATP luminescence, 48 h; reference of the scale not given here; inhibition, % (test concentration not listed); 300,000 compounds, 0.17% hits;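 active = replicate mean above 50%; inconclusive = above 50% but judged a plate artefact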;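 note: 50 nL library stock added to about 25 µL; numbers are from one replicate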
Sa ugtP lethal = compounds lethal to S. aureus RN4220 ugtP deletion mutant. OD600 growth, 16 h; some inactives read as strong as hits. growth inhibition, % (test concentration not listed). 330,000 compounds, 0.54% hits. AID 1259309;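 active = z-score under -3 and OD600 up to 0.15 on both plates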;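 note: plate controls were untreated wells for no effect and antibiotic for full effect; wells of about 80 µL received 100 nL stock; the first replicate is given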
Mtb hypoxia rep growth = recorded beside Mtb hypoxia rep, whose call it bears; growth inhibition, %; measured here: M. tuberculosis growth (absorbance);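 0% = vehicle and 100% = reference antibiotic; read after six days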
Numbers without * were called inactive; ? = inconclusive; · = not tested or not shown.

canonical_smiles | PrP 5UTR inh | Mtb hypoxia rep | Mtb hypoxia rep growth | RN4220 kill | Autofluor counter | BJeLR lethal | Sa ugtP lethal
CC(=O)OC(C(=O)N1CCN(c2ccccc2F)CC1)c1ccccc1 (configuration not stated) | 2 | 20 | 16 | 5.9 | 3674 | -3 | 8
Cc1cc(=O)[nH]c2c(C)cc(S(=O)(=O)NCc3ccccc3)cc12 | -12 | 2 | 2 | 0.7 | 5139 | 0 | 3
O=C1c2ccccc2C(=O)N1CCCCN(C(=O)c1cc([N+](=O)[O-])ccc1Cl)c1ccc(Cl)cc1 | -3 | 6 | 6 | -3.7 | 2070 | -13 | -5
COCCN(C(=O)COC(=O)CCn1c(C)csc1=O)c1c(N)n(Cc2ccccc2)c(=O)[nH]c1=O | 6 | -6 | -12 | 3.4 | 4792 | -11 | 9
C/C(CC(=O)NC(C)(C)C)=N\NC(=O)c1ccccc1N | 1 | · | · | · | 4225 | -7 | ·
Cc1cccc(NC(=O)CSc2n[nH]c(-c3ccncc3)n2)c1C | -12 | 6 | 7 | 3.3 | 5596 | 1 | 8
CCc1nnc(NC(=O)c2cc(S(=O)(=O)N3CCN(c4ccccc4)CC3)ccc2Cl)s1 | -9 | · | · | -2.1 | 4723 | 5 | 8
O=C(O)C1C2C=CC3(CN(C4CCCC4)C(=O)C13)O2 (configuration not stated) | -30 | · | · | 0.8 | 4490 | -4 | -6
O=C(NCc1cccs1)c1cccnc1Cl | -10 | 8 | 5 | -1.0 | 2243 | -6 | -2
Cn1cc(CCC(=O)N2CCC3(CC2)OCCO3)c2ccccc21 | -46 | 6 | 6 | 4.3 | 23713* | 6 | 6
Cc1ccc(S(=O)(=O)NCCCNc2ccc([N+](=O)[O-])cc2)cc1 | -24 | 3 | 8 | 0.8 | 4386 | 5 | 5
O=C(CSc1ccc([N+](=O)[O-])cc1)Nc1nnc(C2CC2)s1 | -24 | 3 | -4 | -0.6 | 3971 | · | 0
COc1ccc(Cc2nnc(SCc3ccc([N+](=O)[O-])cc3)o2)cc1 | -18 | 9 | 2 | 8.2 | 4206 | -1 | 3
Cc1ccccc1NC(=O)C1COc2ccccc2O1 (configuration not stated) | -28 | -6 | 4 | 3.0 | 3661 | -10 | 12
CN(C)CCCNC(=O)c1cc2c3ccccc3n(C)c2s1 | -3 | 12 | 4 | -0.7 | ? | -1 | 6
CC(C)CNC(=O)CSc1ccc(S(=O)(=O)N(C)C2CCCCC2)cn1 | -21 | 13 | 3 | 3.1 | 5415 | · | 4
O=C(COC(=O)CNC(=O)c1ccco1)Nc1ccc(Cl)cn1 | -10 | 1 | -1 | 7.6 | 4082 | -11 | 0
O=C1CCCc2ccccc2N1Cc1ccccc1 | -120 | 13 | 7 | 5.4 | 5752 | 3 | -3
CN(C)S(=O)(=O)c1ccc(N2CCCC2)c(C(=O)Nc2cccc(F)c2)c1 | 2 | -2 | 0 | 3.8 | 4418 | -6 | 9
CC(C)N(C(=O)C(=O)c1cccn1-c1ccccc1C#N)C(C)C | 2 | · | · | 5.8 | 2325 | -1 | 3
CN(Cc1ccccc1)S(=O)(=O)c1ccc(Cl)c(C(=O)OCC(N)=O)c1 | -14 | 7 | 3 | -0.1 | 4272 | 1 | 15
Cc1ccc2c(c1)C(=O)C(=O)N2Cc1ccc(F)cc1 | -16 | 6 | 5 | 8.1 | 2966 | · | 14
COc1cc2c3nnc(-c4ccccc4)c-3cn(Cc3ccc(F)cc3)c2cc1OC | -13 | 2 | 6 | 6.0 | 2706 | 2 | -23
COCC(C)n1c(C)cc(C(=O)CSc2nnc(-c3ccco3)o2)c1C (configuration not stated) | -6 | 11 | 3 | 5.6 | 4107 | · | -21
Cc1cc(N)n2nc(C(F)(F)F)nc2n1 | 2 | 11 | 7 | 3.3 | 2042 | -7 | 3
O=C1CCN(CCc2ccccc2)CCN1[C@H](COc1ccccc1)c1ccccc1 | -21 | · | · | · | 3535 | -4 | ·
COC(=O)C1CSC(C(=O)OC)N1C(=O)Nc1c(C)cccc1C (configuration not stated) | -13 | 6 | 0 | 0.1 | 7915 | -11 | 3
Cc1c(C(=O)NCc2ccc(F)cc2)oc2ccc(S(=O)(=O)N3CCOCC3)cc12 | -9 | 6 | 4 | 0.5 | 3578 | -1 | 5
CC(C)(C)c1ccc2oc(=O)cc(-c3cccc(-c4ccc(C(F)(F)F)cc4)c3)c2c1 | -15 | 5 | 2 | 0.0 | 3727 | · | -5
COc1ccc(S(=O)(=O)N2CCN(CCc3ccccc3)CC2)c(OC)c1 | -8 | -13 | -12 | 1.4 | 3300 | 26 | 9
O=C(O)COc1ccc(C=NNC(=O)c2ccc(-c3csc(Nc4ccc(Cl)cc4)n3)cc2)cc1 | · | 10 | 2 | 20 | · | · | 10
CCO[C@H]1OC(C(=O)N2CCN(Cc3ccc4c(c3)OCO4)CC2)=C[C@@H](C(C)(C)C)[C@@H]1CCCO | -3 | · | · | · | 3625 | -6 | ·

Single entries from the entries so far:
`CCO[C@H]1OC(C(=O)N2CCN(Cc3ccc4c(c3)OCO4)CC2)=C[C@@H](C(C)(C)C)[C@@H]1CCCO` @ Autofluor counter: 3625
`O=C(O)COc1ccc(C=NNC(=O)c2ccc(-c3csc(Nc4ccc(Cl)cc4)n3)cc2)cc1` @ RN4220 kill: 20
`Cc1cc(N)n2nc(C(F)(F)F)nc2n1` @ PrP 5UTR inh: 2

New compounds follow:
canonical_smiles | PrP 5UTR inh | Mtb hypoxia rep | Mtb hypoxia rep growth | RN4220 kill | Autofluor counter | BJeLR lethal | Sa ugtP lethal
O=C(/C=C/c1ccccc1)N1CCN(S(=O)(=O)c2ccc(F)cc2)CC1 | -8 | 2 | -2 | 8.4 | 4373 | 3 | -5
Cc1occc1C(=O)N/N=C/c1cccc2ccccc12 | -140 | · | · | · | 6194 | -4 | ·
S=c1nccc(-c2cc(Cl)sc2Cl)[nH]1 | -10 | · | · | -1.9 | 2458 | 0 | 3
Cc1noc2ncnc(Oc3ccc4ccccc4c3)c12 | -52 | · | · | 3.6 | 2074 | -2 | 9
O=S1(=O)CCOCC(Cc2ccccc2)N1Cc1cccc(Cl)c1 (configuration not stated) | · | 1 | 2 | 8.9 | · | · | 8
FC(F)(F)c1cccc(-c2ccn3ncnc3n2)c1 | -10 | -3 | -10 | 3.3 | 4477 | -1 | 4
O=C(Nc1cccc(Cl)c1)C1CCCN(c2cnccn2)C1 (configuration not stated) | -13 | 7 | 6 | 3.4 | 5654 | 3 | 3
COCCOC(=O)C1=C(C)Nc2cc(=O)[nH]c(=O)n2C1c1cccc([N+](=O)[O-])c1 (configuration not stated) | 6 | 15 | 11 | 10 | 2670 | -5 | 14
CCCNc1nc2c(c(=O)n(C)c(=O)n2C)n1Cc1ccc(F)cc1 | -7 | -4 | 1 | 7.6 | 5831 | 13 | -11
Cc1c(C(=O)NCc2ccc3c(c2)OCO3)oc2ccc(S(=O)(=O)N3CCCC3)cc12 | -13 | 5 | 5 | 1.6 | 10106 | -4 | -18
Cc1noc(C)c1CSc1ccccc1C(=O)N(C)CC(=O)Nc1cccc(F)c1 | -23 | 2 | 6 | 0.9 | 5505 | 8 | 7
Cc1nc2c(c(C)nn2-c2ccccc2)c(C)c1Cl | 1 | 2 | 5 | 5.4 | 6221 | -22 | 1
COC(=O)c1ccc(OCC(O)CN(CCO)CCO)cc1 (configuration not stated) | -11 | -1 | 12 | 1.7 | 9723 | 2 | -2
O=C(Nc1ccc([N+](=O)[O-])cc1)c1cc(Cl)sc1Cl | -17 | 9 | -4 | -5.6 | 3971 | -1 | -13
O=[N+]([O-])c1ccc(N2CCCC2)cc1N1CCCC1 | 1 | 13 | -4 | 6.8 | 3140 | -16 | 7
CCCCOc1ccccc1NC(=O)c1ccc(=O)[nH]c1 | -14 | 5 | -2 | 7.8 | 4328 | -3 | 3
CC(C)C/C=C1\CCc2c([nH]c3ccccc23)C1=O | -39 | 19 | 7 | -1.7 | 4371 | -7 | -65
Cc1cc(C)nc(N2CCC(C(=O)Nc3ccc(Oc4ccccc4)cc3)CC2)n1 | -16 | 6 | 9 | 5.8 | 10863 | -3 | 2
COc1ccc(C2CC(c3ccc(OC)c(OC)c3)=NN2C(=O)c2ccccc2)cc1 (configuration not stated) | -7 | -3 | -11 | 2.2 | 4078 | -5 | 13
O=C1/C(=C/c2cccc(F)c2)Oc2cc(O)ccc21 | -20 | 4 | 2 | 11 | 3498 | -6 | 6
COc1ccc2[nH]c(C)c(CCNCc3cc(OC)c4c(c3)OCO4)c2c1 | -22 | -5 | -9 | 1.4 | 3441 | · | 3
CC1(CCc2ccccc2)NC(=O)N(CC(=O)Nc2ccccc2C#N)C1=O (configuration not stated) | -22 | 3 | 4 | 2.8 | 7942 | · | 5
Cc1ccc(OCC(=O)NCCCNC(=O)c2ccncc2)cc1 | -29 | 14 | 9 | 2.3 | 4035 | -13 | 3
CCOC(=O)NC(=O)c1cn(Nc2ncc(Cl)cc2C(F)(F)F)c(=O)[nH]c1=O | -11 | -2 | -3 | 3.6 | 4329 | -5 | 2

Reformatted field by field: part of the list above.
O=S1(=O)CCOCC(Cc2ccccc2)N1Cc1cccc(Cl)c1 (configuration not stated)
  PrP 5UTR inh: · | Mtb hypoxia rep: 1 | Mtb hypoxia rep growth: 2 | RN4220 kill: 8.9 | Autofluor counter: · | BJeLR lethal: · | Sa ugtP lethal: 8

COc1ccc(S(=O)(=O)N2CCN(CCc3ccccc3)CC2)c(OC)c1
  PrP 5UTR inh: -8 | Mtb hypoxia rep: -13 | Mtb hypoxia rep growth: -12 | RN4220 kill: 1.4 | Autofluor counter: 3300 | BJeLR lethal: 26 | Sa ugtP lethal: 9

(list continues)
canonical_smiles | PrP 5UTR inh | Mtb hypoxia rep | Mtb hypoxia rep growth | RN4220 kill | Autofluor counter | BJeLR lethal | Sa ugtP lethal
Cc1nn(-c2ccccc2)c(Cl)c1C(=O)NCc1ccccc1F | -9 | 9 | 11 | 16 | 3058 | -1 | 7
O=S(=O)(c1ccc(F)cc1)N1CCCC1 | -22 | 11 | -1 | 1.1 | · | -9 | 9
O=C(CSc1cccc[n+]1[O-])c1cccs1 | -7 | · | · | · | 4084 | 1 | ·
CCC(Cc1ccccc1)NC(=O)CN(C)S(=O)(=O)c1ccc2c(c1)c(=O)n(C)c(=O)n2C (configuration not stated) | -13 | -5 | 1 | 8.2 | 5285 | -5 | 3
Cc1ccc(C(=O)Cn2c(C(=O)OCCO)cc3ccccc32)cc1 | -26 | 12 | 4 | 3.7 | 3941 | 1 | -1
CC1CCN(S(=O)(=O)c2ccc(NC(=O)Cn3nnc(-c4ccccc4)n3)cc2)CC1 | -13 | -5 | -3 | -1.3 | 19646* | 0 | -14
Cn1cccc1Cc1nnc(SCC(N)=O)n1-c1ccc(F)cc1 | -9 | · | · | 0.2 | 4519 | 5 | 4
N#Cc1c(N=Cc2ccccc2)oc(-c2ccccc2)c1-c1ccccc1 | · | -5 | 11 | 5.5 | · | · | 6
CCc1ccccc1N/C(=N\S(=O)(=O)c1ccccc1)C(F)(F)F | -8 | · | · | · | 2551 | 5 | ·
CN1CCN(S(=O)(=O)c2ccc(Sc3nc4ccccc4[nH]3)c3nsnc23)CC1 | -23 | · | · | -3.7 | 4757 | -3 | 4
Cc1ccc(NC(=O)CS(=O)CC(=O)Nc2ccc3c(c2)OCO3)cc1Cl (configuration not stated) | -12 | 11 | 10 | 5.8 | 7234 | -9 | -2
Cc1ccc(NC(=O)c2cccs2)cc1NC(=O)c1cccc(F)c1 | -11 | 16 | 7 | 8.1 | 3926 | 0 | 13
C[C@@H]1CCC[C@@]2(O[C@@H](CCO)C[C@@H](O)[C@@H]2O)O1 | -9 | · | · | · | 2861 | 10 | ·
COc1ccc(CNC(=O)CCS(=O)(=O)c2ccc3c(c2)CC(C)N3C(=O)C2CC2)cc1 (configuration not stated) | -14 | -8 | -13 | -1.7 | 4429 | -1 | 1
CCOC(=O)C1C(=O)C=C(c2cccc(NS(C)(=O)=O)c2)CC1c1ccco1 (configuration not stated) | -17 | 9 | 8 | 6.6 | 10156 | -2 | -11
CN(C)CCN1C(=O)C2C3C=CC(C3)C2C1=O (configuration not stated) | -17 | 8 | 4 | 2.7 | 2660 | 1 | 0
C=CCn1c(COc2ccc(CC)cc2)nnc1SCC(=O)N(C)C1CCS(=O)(=O)C1 (configuration not stated) | -6 | · | · | 1.7 | 4384 | -3 | 1
Cc1[nH]c2ccccc2c1C(=O)CSc1nc2ncc(Cl)cc2[nH]1 | -57 | 7 | -3 | -13 | 4344 | -17 | 6
